RGS16-Gao HTS = modulators of RGS16 binding to Galphao, primary screen, biochemical, human proteins, multiplexed bead flow cytometry. Regulator of G-protein signaling 16 (Homo sapiens) + Guanine nucleotide-binding protein …. bead-based flow cytometry RGS16-Galphao binding, fluorescence; actives lie on both sides. binding response (% of control), % at 10 µM. hit rate 0.38% among 220,000;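 active means below 25% or above 175%, edge rows of some plates excepted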;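 further: Galphao activated by GDP with aluminum fluoride before binding; 100% = wells without compound and 0% = beads without RGS; some results beyond the cut were filed as inactive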
Target sequence (O15492 whole entry, looked up): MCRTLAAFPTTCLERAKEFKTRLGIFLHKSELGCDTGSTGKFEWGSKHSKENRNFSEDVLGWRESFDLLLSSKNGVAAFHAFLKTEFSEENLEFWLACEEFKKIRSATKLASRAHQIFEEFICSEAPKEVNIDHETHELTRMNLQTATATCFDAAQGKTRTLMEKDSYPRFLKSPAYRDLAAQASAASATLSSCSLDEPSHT
Target sequence (P09471 whole entry, looked up): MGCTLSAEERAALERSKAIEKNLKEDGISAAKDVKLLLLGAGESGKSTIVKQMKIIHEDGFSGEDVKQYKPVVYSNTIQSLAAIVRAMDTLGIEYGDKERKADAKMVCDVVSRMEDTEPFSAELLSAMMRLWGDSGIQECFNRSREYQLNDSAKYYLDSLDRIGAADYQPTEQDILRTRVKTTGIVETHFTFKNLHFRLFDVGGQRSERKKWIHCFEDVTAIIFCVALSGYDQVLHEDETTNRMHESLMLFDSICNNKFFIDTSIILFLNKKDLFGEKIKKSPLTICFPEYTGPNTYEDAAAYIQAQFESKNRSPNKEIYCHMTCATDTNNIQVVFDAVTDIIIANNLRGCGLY
HSV augment = enhancers of HSV replication in host cells, fold increase, host cell viability. HSV replication augmentation in cells. maximum fold increase. hit rate 0.005% among 220,000;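 active means peak rise of 1.5-fold or more in the series; inconclusive means self-fluorescent or not available for retest; tested in PC3 cells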;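 further: first round at 10 µM; read as green reporter fluorescence; hits show the peak of a series up to 25 µM; 1 = signal of infected wells without compound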
INS promoter inh = inhibitors of insulin promoter-driven GFP, primary screen, imaging, TRM-6 cells (human fetal islet line), eGFP reporter, cell count; reporter expression induced with tamoxifen; inhibition, % at 2 µM; hit rate 0.9% among 130,000; AID 1273, 2008;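 active means inhibition above the mean plus 3 SD, with well images judged a real hit on visual review, cut at about 60% in these data, passing the limit was not always enough; inconclusive means inhibition over the cutoff but images rejected on review; inactive means inhibition not above the cutoff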
GALR2 agonist = GALR2 receptor agonists, primary screen, cell-based; Galanin receptor type 2 (Homo sapiens), O43603; AID 803, 2007; activation, %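 (tested at 5 µM)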; GALR2-expressing cells, agonist activation read-out; hit rate 0.48% among 140,000;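 active means above mean plus 3 SD of all compounds, about 5% in these data, not always enough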;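 further: 0% = vehicle buffer wells and 100% = reference agonist at full effect; tested in CHO reporter cells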
Target sequence (O43603 whole entry, looked up): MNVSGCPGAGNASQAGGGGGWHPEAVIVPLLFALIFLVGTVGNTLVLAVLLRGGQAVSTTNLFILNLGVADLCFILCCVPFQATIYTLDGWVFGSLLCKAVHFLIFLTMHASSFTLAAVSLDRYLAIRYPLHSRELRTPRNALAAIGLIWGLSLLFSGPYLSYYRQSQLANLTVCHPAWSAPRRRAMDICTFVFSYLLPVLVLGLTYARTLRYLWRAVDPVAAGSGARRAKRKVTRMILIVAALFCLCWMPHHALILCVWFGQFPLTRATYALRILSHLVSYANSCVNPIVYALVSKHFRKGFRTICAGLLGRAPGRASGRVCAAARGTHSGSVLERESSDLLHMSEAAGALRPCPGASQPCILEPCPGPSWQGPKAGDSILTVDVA
PKD1 kinase inh = inhibitors of human PKD1 kinase, biochemical, fluorescence polarization | PKD1 kinase fluorescence polarization assay | inhibition, %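 (about 10 µM by stock and volumes)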 | hit rate 0.056% among 200,000;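 active means inhibition of 50% or more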;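 further: controls were vehicle for no effect and a reference inhibitor for full effect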
INS promoter inh cell count = recorded beside INS promoter inh, whose call it bears; normalized cell count, %; measured here: cell count, toxicity; reference of the scale not given here;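 cells exposed to compound for 48 h; stained nuclei by imaging scaled within each plate; lower means fewer cells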
HSV augment primary fold = second read-out of HSV augment, no call of its own (marks repeat the call); fold increase; compound at 10 µM; measured here: primary screen fold increase 10 uM; tested in PC3 cells;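 GFP signal in the first replicate; 1 = infected wells without compound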
The depositor's hits bear a star; i = inactive; ? = inconclusive; . = not tested or not shown.

canonical_smiles	PKD1 kinase inh	GALR2 agonist	HSV augment	INS promoter inh	RGS16-Gao HTS	HSV augment primary fold	INS promoter inh cell count
COc1ccc(C(=O)N/N=C/c2cn[nH]c2-c2ccc(OC)cc2OC)cc1	-1	-0.7	i	66*	108	1	136*
CC(=O)c1c(NCCc2ccccc2)cc(C)oc1=O	-4	-0.4	i	-85	98	0.96	170
CC1CN(C(=O)CSc2ncnc3sccc23)CC(C)O1 (stereo not given)	2	-1.7	i	32	101	0.98	92
Cc1cc(C)n2nc(SCc3nnc(SCCCCl)o3)nc2n1	4	-2.0	i	.	91	0.89	.
COc1ccc(Cn2c(CCC(=O)Nc3ccc(C)cc3)nc3cccnc32)cc1	-4	-1.9	i	-26	154	0.96	128
CC(C)=C(NC(=O)c1ccccc1Br)C(=O)NCCc1nc2ccccc2[nH]1	.	.	i	.	97	0.81	.
COc1ccccc1NC(=O)C(C)NS(=O)(=O)c1ccc(F)cc1 (stereo not given)	-7	-1.0	i	-347	125	0.9	66
CCN(Cc1ccccc1)C(=O)C1CCN(Cc2ccc(SC)cc2)CC1	-1	.	i	31	107	0.97	124

Part of the list above, showing only INS promoter inh cell count and RGS16-Gao HTS.
| SMILES | INS promoter inh cell count | RGS16-Gao HTS |
| --- | --- | --- |
| COc1ccc(Cn2c(CCC(=O)Nc3ccc(C)cc3)nc3cccnc32)cc1 | 128 | 154 |
| COc1ccc(C(=O)N/N=C/c2cn[nH]c2-c2ccc(OC)cc2OC)cc1 | 136* | 108 |

(listing goes on)
canonical_smiles	PKD1 kinase inh	GALR2 agonist	HSV augment	INS promoter inh	RGS16-Gao HTS	HSV augment primary fold	INS promoter inh cell count
O=C1CCc2nc3ccccc3c(=O)n2N1	-2	-2.9	i	-50	109	0.99	62
c1ccc(-c2nc3c([nH]2)CCc2nonc2-3)cc1	-6	.	i	-7	95	0.95	108
CCn1c(CNc2nc(-c3ccccc3)cs2)nnc1SCC(=O)NCc1ccco1	0	-0.6	i	.	88	0.93	.
CC(=O)Nc1ccc(S(=O)(=O)N2CCN(C(=O)N3CCCCCC3)CC2)cc1	-3	-1.2	i	-272	-42	0.86	87
CC[n+]1c(C)n(-c2ccccc2)c2ccc(C(=O)OC)cc21	-3	.	i	.	96	0.91	.
COc1cc(/C=C/CN2CCC(CO)(CC3CCCCO3)CC2)ccc1O (stereo not given)	-11	.	i	.	120	0.92	.
Cc1cc(NC(=O)COC(=O)[C@H](C)NC(=O)c2ccccc2)no1	-4	0.2	i	18	108	1	146
Cc1cc(/C=C2/SC(=S)N(c3cccc(C(F)(F)F)c3)C2=O)c(C)n1-c1cccnc1	-27	-3.1	?	-12	.	.	100

A few values from the list:
`COc1ccc(Cn2c(CCC(=O)Nc3ccc(C)cc3)nc3cccnc32)cc1` | PKD1 kinase inh = -4
`CC[n+]1c(C)n(-c2ccccc2)c2ccc(C(=O)OC)cc21` | PKD1 kinase inh = -3
`Cc1cc(/C=C2/SC(=S)N(c3cccc(C(F)(F)F)c3)C2=O)c(C)n1-c1cccnc1` | INS promoter inh = -12

Following part
canonical_smiles	PKD1 kinase inh	GALR2 agonist	HSV augment	INS promoter inh	RGS16-Gao HTS	HSV augment primary fold	INS promoter inh cell count
COC(=O)CCc1c(C)nc(N)[nH]c1=O	5	0.2	i	-64	94	0.83	129
Cc1cccc(C)c1NC(=O)CN1C(=O)S/C(=C\c2cccn2-c2cccc(C(=O)O)c2)C1=O	3	-1.4	i	19	95	0.81	89
O=C(CSCc1ccc(Cl)cc1)Nc1ccc(S(=O)(=O)N2CCCCCC2)cc1	-24	-0.1	.	.	108	.	.
O=c1[nH]c(=S)c2ncn(-c3ccccc3)c2[nH]1	.	.	i	.	121	0.96	.
Cc1nn(C)c(C)c1CN(C)C(=O)C1(C)CC1(Br)Br (stereo not given)	5	-0.2	i	39	106	1	103
Nc1n[nH]c(N)c1N=Nc1cccc(F)c1	5	-0.9	i	.	96	1	.
O=C(NN(c1ccccc1)c1ccccc1)c1ccc([N+](=O)[O-])o1	0	.	i	.	97	0.56	.
O=C(c1cccs1)N1CCN(c2ccccc2)CC1	0	.	i	.	101	0.91	.
C/C(=N\O)C(=O)NCc1ccccn1	1	-0.8	i	3	110	0.94	151
Cc1cc(=O)[nH]c(SCCCOc2ccccc2Cl)n1	0	-1.2	i	23	102	1.1	99
CCN(c1ccccc1)S(=O)(=O)c1ccc(Cl)c(NC(=O)CN2CCCCCC2)c1	.	.	i	.	101	0.82	.
C=C(Cl)COc1ccc2c(C)cc(=O)oc2c1	7	0.9	i	8	104	0.91	118
Cc1cc(-c2ccn[nH]2)c(C)s1	-2	.	i	.	95	1.1	.
COc1ccc(CCNC(=O)CCNS(=O)(=O)c2cccc(Cl)c2)cc1OC	-1	.	i	.	102	0.92	.
CC(=O)N1N=C(c2cccc(NS(C)(=O)=O)c2)CC1c1cccs1 (stereo not given)	-6	.	i	33	100	0.95	120
CCc1ccc(-c2ccc(C(=O)C(F)(F)F)[nH]2)cc1	1	0.2	i	-27	77	0.68	117
CCc1ccc(NC(=S)Nc2cc(OC)c(NC(=O)C(C)C)cc2OC)cc1	8	.	i	.	105	0.89	.
CCOC(=O)C1(Cc2ccccc2C)CCCN(C(=O)CCn2nccc2C)C1 (stereo not given)	4	.	i	-40	102	1	118
CC(C)(C)c1ccc(/C=N/NC(=O)Cc2c[nH]c3ccccc23)cc1	-3	-0.4	i	14	103	0.88	111
CCN(CC)S(=O)(=O)c1cc(NC(=O)C(=O)c2c(-c3ccccc3)cc3ccccn23)ccc1C	-4	-3.1	i	26	108	0.72	114
COc1cccc(NC(=O)Cn2c(=O)n(CC3CCCO3)c(=O)c3ccccc32)c1 (stereo not given)	-11	-3.2	i	-186	101	0.94	138
COc1ccc(C(N)=S)cc1	-10	-1.1	i	-10	98	0.98	118
COc1ccc(CCNC(=O)CSc2nnc(C(C)N(C)C)n2Cc2ccccc2)cc1OC (stereo not given)	1	.	i	.	98	0.78	.
S=c1[nH]nc(-c2ccco2)n1/N=C/c1ccccc1	.	.	i	.	91	1	.
COC(=O)c1c(C)c[nH]c1C	8	.	.	.	98	.	.
Cc1ccc(N/N=C/c2cccnc2)cc1	-3	-0.4	i	-48	98	1	128
O=C(Nc1ccc(Cl)c(Cl)c1)c1csc(-c2ccccc2)n1	0	-2.3	.	-13	101	.	116
COc1ccccc1-c1cc(C(F)(F)F)nc(NCc2cccs2)n1	-5	1.0	i	-24	108	1.1	72
Cc1cc(=O)[nH]c(SCC(=O)OCc2ccccc2)c1C#N	-13	.	i	.	109	0.84	.
CCCCOc1ccc(/C=N/NC(=S)Nc2cccc(C)c2C)cc1	-5	-2.1	i	-3	99	0.98	106
CCc1oc(C(=O)O)cc1COC	-1	-0.3	i	-29	101	1	186
O=C(c1cccc(C(F)(F)F)c1)N1CCC(O)(CS(=O)(=O)Cc2ccc(Cl)cc2)CC1	-5	-1.4	i	-14	102	0.75	45
O=S(=O)(NCC(Nc1ccc(Cl)cc1)c1ccccc1)c1ccc(Cl)cc1 (stereo not given)	-11	-0.4	i	-22	101	0.84	105
CNc1nc(C)c(C(C)=O)cc1C#N	-4	-0.8	i	-100	100	0.93	108
COc1ccc(OC)c(NC(=O)CSc2nnc(-c3ccco3)n2-c2ccccc2)c1	0	-2.3	i	-16	103	1.2	92
Cc1nc2sc(C(c3ccccc3)N3CC(C)OC(C)C3)c(O)n2n1 (stereo not given)	1	-0.9	i	.	102	1	.
O=C(c1cnn2c(C(F)(F)F)cc(-c3ccco3)nc12)N1CCc2ccccc2C1	-2	-1.0	i	-29	97	0.95	168
CC(C)N1CCN(Cc2ccc(Oc3ncccn3)cc2)CC1CCO (stereo not given)	-3	.	i	.	108	1	.
Cc1cc(=S)n(-c2ccccc2)n1C	-6	-1.4	i	.	117	1	.
O=C(CNC(=O)c1cnccn1)Nc1ccc(F)c(F)c1F	7	-2.5	.	.	102	.	.
COC(=O)c1nn(-c2cccc(C(F)(F)F)c2)c(=O)cc1Sc1ccccn1	6	-3.3	i	-31	97	1.1	114
Cc1ccc(-c2csc3ncn(/N=C/N(C)C)c(=O)c23)o1	-4	-1.0	i	.	102	0.99	.
O=[N+]([O-])c1cc2c(cc1/C=N\NS(=O)(=O)c1ccccc1)OCO2	-8	-2.0	i	0	99	0.81	114
Clc1ccc(Oc2cnns2)c(Cl)c1	-1	-2.3	i	-4	93	1.1	103
Cc1ccc(S(=O)(=O)N2CCN(C(=O)CCC(=O)NC3CCCc4ccccc43)CC2)cc1 (stereo not given)	-3	-2.5	i	-39	110	1.2	84
Cc1cc(C)n2nc(C(=O)N/N=C/c3cccc(Cl)c3)nc2n1	.	.	i	.	94	0.98	.
C=CCn1c(N2C(=O)CC(Cc3ccccc3)C2=O)nc2ccccc21 (stereo not given)	-2	-1.4	i	-120	110	0.86	96
CC(NC(=O)Nc1ccc2c(c1)OCO2)c1ccncc1 (stereo not given)	-5	.	i	5	100	1.1	112
CN(C)S(=O)(=O)c1ccc(NC(=O)N2CCN(c3ccccc3)CC2)cc1	2	-2.0	.	.	98	.	.
Cc1cccc(CSc2nc3sc(C)c(C)c3c(=O)n2Cc2ccco2)c1	-3	-2.3	i	23	97	1	79
C=CCN1C(=O)/C(=C/c2ccsc2)SC1=S	4	.	i	.	103	0.96	.
Cn1c(=O)c2c(=O)cc(NNC(=O)CC#N)[nH]c2n(C)c1=O	-4	.	i	.	97	0.94	.
O=C(c1ccc2c(c1)OCO2)N1CCCc2ccccc21	-1	-1.1	i	.	98	0.9	.
COc1ccc(C(CC(=O)O)NC(=O)COc2ccc(C)cc2)cc1OC (stereo not given)	2	-1.2	i	-17	100	1.1	88
CCOC(=O)CSc1nnc(Cn2c(=O)sc3ccccc32)n1C	1	-1.6	i	.	103	1.1	.
CSc1nsc(SCC(=O)Nc2ccccn2)n1	12	-0.7	i	.	108	0.81	.

The listing continues:
canonical_smiles	PKD1 kinase inh	GALR2 agonist	HSV augment	INS promoter inh	RGS16-Gao HTS	HSV augment primary fold	INS promoter inh cell count
CCc1nnc(N/N=C/c2cccs2)n1N	-1	-0.1	i	-57	105	1	125
CCOC(=O)c1c(C)nc2c(c1-c1ccccc1)C(=O)CCC2	5	-3.5	i	21	104	0.88	91
COc1ccc2c(COC(=O)c3n[nH]c4ccccc34)cc(=O)oc2c1	-13	-1.1	i	24	103	1.1	126
CN(NC(=O)c1ccco1)c1nc2ccccc2nc1C(F)(F)F	1	.	i	6	101	0.79	79
Cc1ccc(C)n1-c1ccncc1	-1	-0.2	i	.	98	1	.
COc1ccc(Cn2cc(C(=O)c3ccccc3)c(=O)c3cc(OC)ccc32)cc1	-6	1.3	.	5	91	.	117
O=c1oc2ccccc2c2c1nc(C(F)(F)F)n2-c1ccccc1	0	-1.1	i	.	100	0.98	.
CCOC(=O)CSc1nnc(CNC(=O)c2cccc(C)c2)n1-c1ccccc1OC	-5	-0.1	.	45	101	.	141

An excerpt from above in order of their number in RGS16-Gao HTS, ascending.
Molecule	PKD1 kinase inh	GALR2 agonist	RGS16-Gao HTS	HSV augment primary fold
O=C(NN(c1ccccc1)c1ccccc1)c1ccc([N+](=O)[O-])o1	0	.	97	0.56
Cc1ccc(C)n1-c1ccncc1	-1	-0.2	98	1
CSc1nsc(SCC(=O)Nc2ccccn2)n1	12	-0.7	108	0.81

High-throughput results from PubChem BioAssay.
